Mtb hypoxia rep – inhibitors of hypoxia-regulated fluorescent reporter in Mycobacterium tuberculosis. fluorescence inhibition, % (no concentration beside the values). actives 0.1% (n = 300,000). M. tuberculosis hypoxia-regulated fluorescent reporter, fluorescence;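 active means 35 to 45% if threefold the growth effect, above 45% if 1.5-fold the growth effect; inactive means the rest, general growth blockers included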;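 further: wells of about 50 µL received 100 nL stock; 0% = vehicle wells and 100% = reference inhibitor wells; whole bacteria with a GFP reporter of the hypoxia response; strong numbers were not always called active; many hits fall short of the cut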
PrP UTR inh – suppresses PrP 5' UTR mRNA reporter expression; cell-based PrP 5' UTR mRNA reporter, plate reader; inhibition, % (test concentration not listed); actives 0.35% (n = 340,000); AID 488862;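 active means every replicate at 50% or more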;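 further: 0 = median of the neutral control wells; tested in H4 reporter cells; numbers are from one replicate; inactives centre near -14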
BJeLR viability – BJeLR cell viability loss. actives 0.17% (n = 300,000). AID 1554. BJeLR (HRASV12) viability, CellTiter-Glo ATP luminescence, 48 h; reference of the scale not given here. inhibition, % (test concentration not listed);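 active means replicate mean above 50%; inconclusive means above 50% but judged a plate artefact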;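 further: 50 nL library stock added to about 25 µL; numbers are from one replicate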
RN4220 kill – kills Staphylococcus aureus RN4220 | inhibition, % (concentration not given with the values) | actives 0.33% (n = 330,000) | S. aureus RN4220 growth, OD600, 16 h | AID 1259311;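 active means z-score of -3 or lower and OD600 up to 0.18 on both plates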;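 further: plate controls were untreated cells for no effect and reference antibiotic for full effect; stock transfer was 100 nL into about 80 µL; one replicate is shown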
Bead autofluor – compound fluorescence in toxin protease inhibitor counterscreen; compound autofluorescence counterscreen, microsphere flow cytometry; stronger effect = higher value; fluorescence intensity (test concentration not listed); actives 3.1% (n = 360,000); AID 624483;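 active means at least 3 SD above the mean of all compounds, about 16000 in these data; inconclusive means too few beads counted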;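 further: 100 nL of 1 mM stock went into each well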
ugtP null kill – compounds lethal to S. aureus RN4220 ugtP deletion mutant; OD600 growth, 16 h; some inactives read as strong as hits; growth inhibition, % (concentration not given with the values); actives 0.54% (n = 330,000);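 active means z-score under -3 and OD600 up to 0.15 on both plates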;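 further: plate controls were untreated wells for no effect and antibiotic for full effect; wells of about 80 µL received 100 nL stock; the first replicate is given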
Mtb hypoxia rep growth – second read-out of Mtb hypoxia rep, no call of its own (marks repeat the call); growth inhibition, %; measured here: M. tuberculosis growth (absorbance);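 0% = vehicle and 100% = reference antibiotic; read after six days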
An asterisk follows results filed as active; ? = inconclusive; / = no result given; & = joins results of further samples.

Start of the data: the first four entries, ahead of the listing:
smiles	Mtb hypoxia rep	Mtb hypoxia rep growth	PrP UTR inh	BJeLR viability	RN4220 kill	Bead autofluor	ugtP null kill
Cc1ccc(CN2C(=O)C(CC(C)C)Nc3ncnc(N4CCOCC4)c32)cc1 (configuration not stated)	2	6	-19	/	2.4	3558&6090	-10
COc1ccc([C@H]2C(C#N)=C([S-])N[C@](C)(O)[C@@H]2[n+]2ccccc2)cc1	5	2	/	0	1.1	7631	-4
CCC1Nc2ncnc(N3CCc4ccccc4C3)c2N(Cc2ccc(Cl)cc2)C1=O (configuration not stated)	7	4	3	/	4.5	3067	12
COc1ccc(NC(=O)CC2C(=O)N(Cc3ccco3)C(=S)N2C(C)C)cc1 (configuration not stated)	-4	-1	7	-2	1.7	4285	3

The listing, previewed entries included:
smiles	Mtb hypoxia rep	Mtb hypoxia rep growth	PrP UTR inh	BJeLR viability	RN4220 kill	Bead autofluor	ugtP null kill
Cc1ccc(CN2C(=O)C(CC(C)C)Nc3ncnc(N4CCOCC4)c32)cc1 (configuration not stated)	2	6	-19	/	2.4	3558&6090	-10
COc1ccc([C@H]2C(C#N)=C([S-])N[C@](C)(O)[C@@H]2[n+]2ccccc2)cc1	5	2	/	0	1.1	7631	-4
CCC1Nc2ncnc(N3CCc4ccccc4C3)c2N(Cc2ccc(Cl)cc2)C1=O (configuration not stated)	7	4	3	/	4.5	3067	12
COc1ccc(NC(=O)CC2C(=O)N(Cc3ccco3)C(=S)N2C(C)C)cc1 (configuration not stated)	-4	-1	7	-2	1.7	4285	3
O=C(NCC1CCCO1)c1cc(S(=O)(=O)N2CCOCC2)c(Cl)cc1Cl (configuration not stated)	-1	-3	-26	-3	-0.8	5664	2
COc1ccc(S(=O)(=O)Nc2ccc3c(c2)C(=O)N(C(C)CO)CC(C)C(CN(C)C(=O)NC(C)C)O3)cc1 (configuration not stated)	7	3	/	/	2.4	/	-6
CCOC(=O)C=c1sc(=C(C#N)C(N)=O)n(-c2ccccc2)c1=O	10	-3	/	/	3.9	/	5
CC(C)CC(C)NC(=O)c1ccc(C(F)(F)F)cc1 (configuration not stated)	/	/	-17	-2	0.8	3196	1
O=C(CCNS(=O)(=O)c1ccc(Br)cc1)N1CCN(c2ccccc2O)CC1	10	-1	-12	-5	1.5	?	-1
CCN(C(=O)CSc1nnc(-c2ccncc2)n1-c1ccccc1)C1CCS(=O)(=O)C1 (configuration not stated)	6	5	-11	8	6.2	4472	5
COC(=O)c1ccc(CN(C(C)=O)c2ccccc2)o1	/	/	-15	9	9.6	3672	15
O=c1c2ccccc2nnn1Cc1nnc(-c2ccccc2Br)o1	4	6	-11	4	6.9	3724	-7
CCCC12CN3CC(C)(CN(C1)C3c1ccc([N+](=O)[O-])o1)C2=O (configuration not stated)	-7	-3	-2	6	0.0	4358	-1
CSCCC(=O)Nc1cc(S(=O)(=O)N2CCOCC2)ccc1N1CCN(C)CC1	-14	-1	-26	-2	1.1	4147	1
Cc1ccccc1C(C(=O)NC1CCCC1)N(C(=O)Cc1cccs1)c1ccc2c(c1)OCCO2 (configuration not stated)	3	14	-21	5	-6.9	4286	-25
CCCCS(=O)(=O)C1CCS(=O)(=O)C1 (configuration not stated)	/	/	-14	3	0.3	4501	4
Cc1ccc(N(C(=O)c2csnn2)C(C(=O)NC2CCCCC2)c2cccnc2)cc1 (configuration not stated)	7	6	-10	10	-1.5	3829	5
COCCN1CCn2c(nc3cc(NC(=O)c4ccc(OC)cc4)ccc32)C1	2	-3	-15	-10	-17	?	-8
O=C1CC(N2CCN(c3ccc(Cl)cc3)CC2)C(=O)N1c1ccccc1 (configuration not stated)	12	1	-45	4	6.1	3973	6
Cc1ccc(CNC(=O)C2CCCN(S(=O)(=O)c3c(C)noc3C)C2)cc1 (configuration not stated)	-3	-7	-9	-1	5.7	9795	3
CCc1ccc(NC(=O)C2=CC=CN3CCS(=O)(=O)N=C23)cc1	2	-1	-15	/	-1.6	/	1
Cc1ccc(CN2C(=O)CCC2C(=O)NC2CCCC2)cc1 (configuration not stated)	16	3	-33	-6	-7.6	2932	-2
Cc1cc(C)nc(SCCS(=O)(=O)Cc2ccc(Cl)cc2)n1	13	8	-6	0	2.9	2097	6
CN1CCN(S(=O)(=O)c2cccs2)CC1	2	2	-20	5	1.0	4291	0
c1ccc2c(c1)[nH]c1c3ccccc3sc21	12	4	-37	2	-5.7	3669	10
CN1CCC(C)(O)C2CCCCC21 (configuration not stated)	7	-6	-19	-6	1.5	3780	2
C=CCNC(=O)C1CCN(c2ccc(S(=O)(=O)N3CCOCC3)cc2Cl)CC1	9	2	-17	5	1.8	4663	4
COC(=O)c1ccccc1NC(=S)NC(=O)COc1ccccc1Cl	0	5	-13	-9	8.2	20710*	2
CCOC(=O)C1CCN(c2cc3c(cc2NC(=O)c2ccccc2F)n(C)c(=O)n3C)CC1	-3	-2	-11	-12	1.3	3949	-5
COC(=O)NN=C(C)c1cccs1	-8	0	/	/	-1.1	/	6

The listing continues:
| Structure | Mtb hypoxia rep | Mtb hypoxia rep growth | PrP UTR inh | BJeLR viability | RN4220 kill | Bead autofluor | ugtP null kill |
| --- | --- | --- | --- | --- | --- | --- | --- |
| O=C(Nc1ccc(F)cc1)OC1CN2CCC1CC2 (configuration not stated) | 7 | 5 | -30 | -1 | 2.4 | 3213 | 6 |
| Cc1cc(C)cc(N(CC(=O)NCc2ccco2)S(=O)(=O)c2ccccc2)c1 | 2 | 4 | -23 | -5 | 4.2 | 3059 | 6 |
| O=C(COc1coc(CN2CCN(c3cccc(Cl)c3)CC2)cc1=O)NC1CCCC1 | 16 | 9 | -8 | 11 | 3.7 | 5130 | 8 |
| CCCCCCC(=O)Nc1ccc(Cl)cn1 | 12 | -3 | -26 | 17 | 0.3 | 15150 | 10 |
| COc1ccc(OC)c(/C=N/NC(=O)c2ccc(=O)[nH]n2)c1 | / | / | -31 | -3 | / | 3963 | / |
| C[C@H](CO)N1C[C@H](C)[C@@H](CN(C)Cc2ccncc2)Oc2c(NC(=O)CCC(F)(F)F)cccc2C1=O | 9 | 18 | -25 | / | -12 | 4903 | -6 |
| Cc1ccnc(NC(=O)C2CC(=O)N(c3ccc4c(c3)OCCO4)C2)c1 (configuration not stated) | 3 | -3 | -51 | 8 | 0.5 | 4561 | 2 |
| COc1ccc2c(CN3CC=C(c4ccccc4)CC3)cc(=O)oc2c1 | 10 | 4 | -20 | 7 | 4.4 | 5418 | 9 |
| O=C(COc1cc([N+](=O)[O-])cc2cccnc12)NCCC1=CCCCC1 | 9 | 7 | -9 | -4 | 5.0 | 3034 | -13 |
| CC(C)OP(=O)(OC(C)C)C(O)c1ccccc1F (configuration not stated) | / | / | -15 | 5 | / | 9242 | / |
| CCN(C(=O)COC(=O)c1cc2c(s1)CCC(C)C2)c1c(N)n(Cc2ccccc2)c(=O)[nH]c1=O (configuration not stated) | 18 | 39 | 9 | / | 1.0 | 3974 | -4 |
| COc1ccc(CCNC(=O)C2CC(=O)N(C3CCCCCCC3)C2)cc1OC (configuration not stated) | -2 | -1 | -11 | 5 | -0.7 | 24165* | -1 |
| Cc1noc(C)c1C(=O)N1CCN(S(=O)(=O)c2ccc(F)cc2)CC1 | 6 | 3 | -14 | -11 | 9.7 | 4548 | 4 |
| CON(C)S(=O)(=O)c1ccc2c(c1)NC(=O)C1CCCN21 (configuration not stated) | 0 | 2 | -8 | 1 | 0.9 | 6892 | 13 |
| Cc1ccc(-c2cc(C(=O)Nc3cc(C(=O)O)ccc3C)c3ccccc3n2)cc1 | 5 | -1 | -8 | 5 | 8.5 | 5108 | 11 |
| COc1cccc(C(=O)Nc2cccc3ccccc23)c1 | 14 | 8 | -24 | 5 | 13 | 3063 | 6 |
| Cc1noc(NS(=O)(=O)c2ccc(N/C=C\C(=O)c3ccc(Br)cc3)cc2)c1C | -5 | 4 | -16 | -3 | 10 | 3946 | 5 |
| CCSc1nnc(NC(=O)[C@@H](NC(=O)c2ccc(C(C)(C)C)cc2)C(C)C)s1 | -13 | 7 | -18 | -2 | -0.1 | 2144 | -5 |
| COCCCN(C(=O)CSc1nc2ccccc2c(=O)n1C)c1c(N)n(Cc2ccccc2)c(=O)[nH]c1=O | 2 | 5 | -13 | / | 3.7 | ? | 6 |
| CC(OC(=O)CCN1C(=O)C2CC=CCC2C1=O)C(=O)Nc1cccc(C#N)c1 (configuration not stated) | -9 | 8 | 3 | 4 | 1.8 | ? | 1 |
| COC(=O)c1ccc2c(=O)n(CC3CCCO3)c(SCC(=O)NCCc3ccc(S(N)(=O)=O)cc3)nc2c1 (configuration not stated) | 6 | 11 | -72 | 4 | -2.0 | 4501 | -2 |
| Cc1cccc(C(=O)Nc2ccc(C(=O)NN=Cc3cccnc3)cc2)c1 | 4 | 4 | / | / | -0.3 | / | -5 |
| O=C(NCCC(NS(=O)(=O)OCC(Cl)(Cl)Cl)c1ccccc1)C(F)(F)F (configuration not stated) | 0 | -2 | -15 | -1 | -0.6 | 3520 | -7 |
| O=C(NN=C/C(Cl)=C/c1ccccc1)c1ccccc1F | 1 | -10 | / | / | 8.0 | / | 6 |
| CN(C(=O)C1CCC(=O)N(CCCN2CCCC2=O)C1)C(C1CC1)C1CC1 (configuration not stated) | 6 | 6 | -8 | -2 | 1.5 | 5436 | 4 |
| CC(NC(=O)COC(=O)CNC(=O)C1CCCCC1)c1ccccc1 (configuration not stated) | 2 | -5 | 4 | / | 3.8 | 2875 | 5 |
| CCCCN(C)CCC(=O)Nc1ccc2c(c1)CCC2 | -3 | 2 | -37 | -2 | 2.5 | 3874 | 3 |
| CC(C)CC(=O)N1CCN(C(=O)c2cccc(F)c2)CC1 | / | / | -30 | 13 | -0.1 | 4894 | 8 |
| CC1CCN(CCNC(=O)C2CCN(S(=O)(=O)c3cccc4nsnc34)CC2)CC1 | -7 | -8 | -3 | -2 | -4.3 | 5621 | -3 |
| Cc1cc(C(=O)NCC(c2ccco2)N(C)C)no1 (configuration not stated) | 4 | 0 | -11 | -3 | 4.6 | 19860* | -8 |
| COc1ccc(OC)c(C2CC(=O)OC3=C2C(=O)CC(C)(C)C3)c1 (configuration not stated) | -3 | 2 | -7 | -1 | 0.3 | 3531 | 7 |
| CCCCc1ccc(NC(=O)N[C@H](C(=O)O)C(C)CC)cc1 (some centres not stated) | 5 | 1 | -8 | -2 | 25 | 3213 | 17 |
| COc1cccc(NS(=O)(=O)c2ccc(-n3cccn3)cc2)c1 | -3 | -6 | -32 | 1 | 0.1 | 5450 | -6 |
| CCN1C(=NCC(C)C)NC(CCc2ccccc2)C(C(=O)NCC(C)C)C1C (configuration not stated) | 6 | 9 | / | / | 4.0 | / | -11 |
| COc1ccc(C(=O)Nc2cc(-c3ccccc3)nn2-c2ccccc2F)cc1 | 8 | 9 | 4 | / | 0.7 | 3002 | 4 |
| CCOc1nc(-c2ccccc2)ccc1-c1noc(-c2cccnc2)n1 | 4 | 1 | -25 | -6 | -0.9 | 3337 | 0 |
| O=C(NCc1ccccc1)C(c1cccnc1)N(C(=O)c1csnn1)c1ccccc1 (configuration not stated) | 2 | 5 | -21 | -10 | 5.0 | 3075 | 6 |
| CC(C)(C)c1ccc(-n2ncc3c2CCCC3NC(=O)CCN2CCCCC2=O)cc1 (configuration not stated) | 12 | 9 | -24 | 12 | 3.1 | 5161 | 5 |
| NC(=O)CSc1n[nH]c(=O)n1CCc1ccccc1 | 1 | -2 | -22 | -6 | 3.3 | 4411 | 1 |
| CC(C)CCNC(=S)Nc1ccccn1 | 16 | 11 | -12 | -4 | 5.2 | 2236 | 11 |
| CCCn1c(N)c(N2CCCCC2)c(=O)n(CC(=O)Nc2ccccc2C)c1=O | -4 | 1 | -29 | 14 | -1.6 | 2315 | -3 |
| S=C(NN=Cc1ccc2ncccc2c1)Nc1cccnc1 | -6 | 8 | / | / | -1.5 | / | -1 |
| CC(=O)NNC(=O)c1sc(=S)n(C)c1C | -9 | 8 | -23 | 0 | 4.1 | 3414 | 4 |
| O=C(COC(=O)COc1ccccc1)Nc1ccc(OC(F)(F)F)cc1 | / | / | -4 | 12 | 2.3 | 3747 | -6 |
| CC(=O)N(NC(=O)c1ccccc1Cl)C1CC(=O)N(c2ccc(C)cc2)C1=O (configuration not stated) | 0 | 0 | -5 | -5 | 3.4 | 8861 | 2 |
| O=C(Nc1ccccc1C(=O)NCc1cccnc1)c1ccco1 | / | / | 0 | 6 | -1.9 | 4748 | 0 |
| COc1ccc(CNS(=O)(=O)NCc2ccccc2F)cc1 | 8 | 2 | -11 | 4 | 2.1 | 4359 | 6 |

High-throughput results (PubChem BioAssay)

This is a random part of the collection. Share with any hit: about 4%.
